Bioassay records (PubChem BioAssay)
Rango release inh: inhibition of RanGTP-driven Rango-importin beta dissociation. O95149+P62826. Biochemical FRET Rango-importin beta, RanGTP-induced dissociation. Potency, µM (titrated, usually from 46.1 µM), for the others: at the highest dose activity change, negative = inhibition. 340,000 tested, 0.071% active. AID 540253; active means falling FRET ratio curve, often poorly fitted, with flat reads before Ran was added; inconclusive means other falling curves, or compound fluorescence or quenching; inactive means flat or rising ratio curve;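 note: potency is the fitted concentration of half-maximal effect; % of control where 0% means no effect; nearly all actives have a fitted effect of over 45% in size; -100% = wells without RanGTP and RCC1; the record marks most hits as doubtful in a second field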
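Compounds sat 5 min at room temperature with 0.1 uM Rango biosensor plus 0.25 uM importin beta, then FRET pre-read. RanGTP-RCC1 (0.6 uM Ran, 2mM GTP, 0.2 uM RCC1) added for 45 min, and the CFP/YFP post-read measured blocked complex dissociation.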
Rango-impB inh: prevents formation of the Rango-importin beta complex; Q14974; Potency, µM (top dose mostly 92.2 µM), for inactives: top-dose inhibition of complex formation; Rango CFP/YFP FRET sensor + importin beta, 45 min; 340,000 tested, 0.031% active; active = rising FRET ratio curve, often small or poorly fitted; inconclusive = mostly compound fluorescence or quenching in the first reads; inactive = flat curves in all reads;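 note: potency is the fitted concentration of half-maximal effect; 0% = DMSO wells and 100% = buffer wells lacking importin beta; nearly all actives have a fitted effect of over 15% in size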
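FRET biosensor Rango (snurportin 1 IBB between N-terminal EYFP and C-terminal Cerulean), 50 nM in PBS/1 mM DTT/0.02% Tween-20/0.1% BSA, preincubated 5 min RT with compound; 0.125 microM importin beta added, 45 min RT, CFP/YFP FRET ratio read.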
GLA inh pH 4.5: inhibitors of human alpha-galactosidase A at pH 4.5. activity change, negative = inhibition, % at 105 µM. purified enzyme, 4-MU-alpha-Gal fluorescence, pH 4.5. P06280. AID 1467. 230,000 tested, under 10 active; inconclusive = small, poorly fitted or top-dose-only inhibition, or a rising curve; inactive = flat fitted curve, though single readings scatter; no compound was filed as active;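 note: 0% = full activity with enzyme and -100% = basal without enzyme; dose as in the result columns while the protocol names 77 µM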
Target sequence (P06280 whole entry, looked up): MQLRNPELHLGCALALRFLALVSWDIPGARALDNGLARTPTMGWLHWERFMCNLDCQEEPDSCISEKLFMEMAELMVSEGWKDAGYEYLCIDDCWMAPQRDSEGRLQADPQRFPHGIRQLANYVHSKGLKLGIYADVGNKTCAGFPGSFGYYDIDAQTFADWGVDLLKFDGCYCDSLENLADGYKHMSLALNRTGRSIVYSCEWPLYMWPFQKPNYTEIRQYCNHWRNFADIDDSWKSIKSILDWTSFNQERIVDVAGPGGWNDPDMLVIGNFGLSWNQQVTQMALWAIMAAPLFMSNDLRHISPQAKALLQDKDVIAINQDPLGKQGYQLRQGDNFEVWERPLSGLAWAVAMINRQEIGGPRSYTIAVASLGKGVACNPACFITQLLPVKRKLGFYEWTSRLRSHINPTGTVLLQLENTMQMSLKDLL
miR-21 reporter: miR-21 reporter, rising signal. HeLa miR-21 FLuc reporter, luciferase, 48 h. Potency, µM (titrated, usually from 38.3 µM), for the others: at the top dose reporter change, positive = more light. 340,000 tested, under 10 active; active = well fitted rising curve with a large enough effect; inconclusive = small, poorly fitted or top-dose-only effect; inactive = no such curve, though single readings can be large or run the other way;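 note: % of control where 0% means no effect; miR-21 action dims this reporter so a rising signal means less miR-21 action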
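Luminescence from a firefly luciferase reporter carrying a miR-21 binding site downstream, stably expressed under a CMV promoter in HeLa cells that make miR-21 endogenously, reports miRNA modulation after 48 h compound exposure up to approximately 40uM final.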
Starred values were filed as active, the others as inactive; u = inconclusive; x = not tested or not shown; [ ] = another dose, or the depositor's remark. An excerpt. The share of hits here may be higher or lower than overall.

Start of the data: the first two records as a preview:
SMILES	Rango release inh	Rango-impB inh	GLA inh pH 4.5	miR-21 reporter
O=C(NN=C1C2CC3CC(C2)CC1C3)c1ccccc1O	6%	-0.3%	0	-24%
CC(=O)Oc1cccc(/C=N\NC(=O)C(=O)N/N=C/c2cccc(OC(C)=O)c2)c1	3%	u	x	x

Main list, from the first entry:
SMILES	Rango release inh	Rango-impB inh	GLA inh pH 4.5	miR-21 reporter
O=C(NN=C1C2CC3CC(C2)CC1C3)c1ccccc1O	6%	-0.3%	0	-24%
CC(=O)Oc1cccc(/C=N\NC(=O)C(=O)N/N=C/c2cccc(OC(C)=O)c2)c1	3%	u	x	x
COc1ccccc1N1CCN(C(=O)c2cc(=O)c3ccc(C)cc3o2)CC1	8%	0.2%	x	-4%
COc1ccc(C2=C(C=C(C#N)C#N)C(c3ccccc3C)c3ccccc3O2)cc1OC (configuration not stated)	-15%	u	-6	-1%
COc1cc(NC(=O)c2cnc(N)o2)cc(C(=O)Nc2cccc(C(F)(F)F)c2)c1	-13%	0.3%	-4	u
COc1ccc2c(c1OC)C(=O)N(c1ccc(C)cc1)C2	-12%	-2.5%	-1	-34%
CCC(C)C(NC(=O)OCc1ccccc1)C(=O)OCN1C(=O)c2ccccc2C1=O (configuration not stated)	-10%	0.4%	-14	-7%
CCC[C@@H](NS(=O)(=O)c1ccc(C)cc1)C(=O)Oc1ccc2c3c(c(=O)oc2c1)CCC3	u	-5.9%	-10	-9%
CC(=O)NC(CC(=O)O)C(=O)O (configuration not stated)	-2%	5.4%	6	x
COc1ccc(NS(=O)(=O)c2cccc(NC(=O)c3ccc(Cl)nc3)c2)cc1	3%	3.9%	-16	u
O=C(c1ccc(S(=O)(=O)N2CCc3ccccc3C2)cc1)N1CCCCC1	-3%	3.7%	1	3%
COc1ccc(S(=O)(=O)N2CCOCC2)cc1NC(=O)[C@@H]1CCCN1C(=O)c1cccs1	-9%	1.2%	-1	-1%
C=CCSc1nsc(NC(=O)Nc2ccc(F)cc2)n1	-3%	5.9%	x	u
Cc1cccc(NC(=O)NCc2ccccn2)c1	-3%	-1.2%	4	-37%
NC(=O)C1(N2CCCCC2)CCN(C(=S)Nc2cc(F)cc(F)c2)CC1	0%	0.6%	3	2%
CC(=O)Nc1ccc(S(=O)(=O)NCCC(=O)OCC(=O)c2cccc(Br)c2)cc1	u	-1.9%	x	x
C/C(=N\Nc1nc2ccccc2[nH]1)c1ccc(Cl)s1	-25%	u	-7	3%
COc1ccc(-c2cc3ccc(O)cc3oc2=O)cc1OC	u	u	x	-82%
CCCCN=C(C)C1=C(O)CSC1=O	7%	-0.1%	-5	0%
Nc1nc(SCC(=O)Nc2cccc(Oc3ccccc3)c2)n[nH]1	-6%	3.4%	5	-12%
O=C(O)C1C2CCCCC2=C2CCCCC2C1C(=O)O (configuration not stated)	-19%	0.3%	8	-1%
C/C(=N\NC(=O)C(=O)Nc1cc(Cl)ccc1Cl)c1ccncc1	0%	-0.5%	-1	-5%
Cc1c(C2=CCN(S(=O)(=O)c3ccc(Br)cc3)CC2)c2ccccc2n1C	-4%	-4.8%	-10	0%
Cc1ccc(SC(C)C(=O)NCc2cccnc2)cc1 (configuration not stated)	14%	5.6%	2	-7%
Cc1nn(-c2ccccc2)c(C)c1/C=N/n1c(-c2ccc(C(C)(C)C)cc2)n[nH]c1=S	-13%	5.5%	7	-3%
Going on with the list.
SMILES	Rango release inh	Rango-impB inh	GLA inh pH 4.5	miR-21 reporter
Cc1cc(C)cc(N(CC(=O)NCc2ccc3c(c2)OCO3)C(=O)CCC(=O)Nc2ccccn2)c1	0%	2.8%	3	-3%
COc1ccc2ccc(OCC(=O)N3c4ccccc4NC(=O)CC3C)cc2c1 (configuration not stated)	-3%	-1.0%	x	x
Cc1cc(C)c(S(=O)(=O)N2CCCOC2CNC(=O)C(=O)NCCCn2ccnc2)c(C)c1 (configuration not stated)	3%	-0.8%	6	0%
O=C(N/N=C/c1ccccc1OCc1ccccc1Cl)c1cccnc1	-1%	4.8%	-22	-2%
Cc1ccc(Nc2nc(Oc3ccc(=O)[nH]n3)nc(N(C)C)n2)cc1	-8%	0.0%	10	-15%
COC(=O)c1ccsc1NS(=O)(=O)c1ccccc1	u	u	x	4%
Cc1cccc(NCC(=O)N/N=C\c2cccc(Oc3ccccc3)c2)c1	13%	1.4%	-11	1%
N=C(N)c1ccc(O)cc1	14%	0.5%	0	-2%
CC(Oc1ccc(Cl)cc1Cl)c1ccnc(N)n1 (configuration not stated)	-12%	-0.4%	-3	-18%
Cc1ccc(CN2CCNC(=O)C2CC(=O)O)o1 (configuration not stated)	22%	u	5	0%
CC(=O)c1ccc(NC(=O)CN2C(=O)NC(C)(c3ccc4c(c3)OCCO4)C2=O)cc1 (configuration not stated)	-11%	-1.3%	x	x
Cc1ccc(OCC(=O)Nc2ccc(NC(=O)c3cccs3)cc2)c(C)c1	7%	2.0%	x	-1%
COC(=O)c1ccc(OC)c(OC)c1Cl	4%	1.2%	-17	-4%
Cc1ccc(-c2cn3nc(-c4ccccc4)c(-c4ccccc4)nc3n2)cc1	u	u	-7	1%
O=C(CSc1n[nH]c(-c2ccccn2)n1)Nc1cccc(Cl)c1	-11%	0.8%	x	18%
Cc1nccn1CC(=O)N/N=C/c1cccs1	1%	0.7%	3	0%
O=C(O)Cc1ccc(NCc2ccccc2Cl)cc1	-12%	11%	2[21.1 µM]	0%
CC1=NNC(=O)C1CCC(=O)N/N=C/c1ccccc1 (configuration not stated)	-11%	4.5%	1	-5%
CCOC(=O)Cc1csc(NC(=O)CSc2nnc(-c3ccncc3)n2Cc2ccco2)n1	-5%	3.7%	x	x
COc1cccc(/C=C2\SC(=S)N(CCCC(=O)N3CCCC3)C2=O)c1	1%	0.0%	x	15%
CCn1cc(C(=O)NCCc2ccc(OC)cc2)c(=O)c2ccc(C)nc21	-1%	2.9%	x	0%
CN(C)/C=N/n1cnc2ccccc2c1=O	-19%	0.0%	3	-3%
CC(C(=O)N(C)C1CCS(=O)(=O)C1)N1C(=O)/C(=C/c2ccco2)SC1=S (configuration not stated)	15%	2.6%	x	2%
CCn1c2ccccc2c2cc(NC(=O)COC(=O)c3ccc(NC(=O)CC#N)cc3)ccc21	-1%	-0.5%	x	x
O=C(NCc1cccc(Cl)c1)c1cnn2c1NC(c1ccco1)CC2C(F)(F)F (configuration not stated)	-20%	-1.9%	-4	18%
(next part)
SMILES	Rango release inh	Rango-impB inh	GLA inh pH 4.5	miR-21 reporter
O=C(CSCCc1ccccn1)Nc1ccccn1	6%	3.3%	0	-5%
O=C(Nc1ccc(S(=O)(=O)N2CCCCC2)cc1)c1ccc(CN2CCOCC2)cc1	-21%	0.8%	-5	u
COc1cc(OC)c(NS(=O)(=O)c2c(C(=O)N3CCCCC3)c(C)n(C)c2C)cc1Cl	-4%	-1.1%	x	5%
CN1CCN(C(c2ccc(F)cc2)c2ccc3cccnc3c2O)CC1 (configuration not stated)	1%	0.1%	x	x
Cc1cc(C)c2c(C)nn(C3CCCCC3)c2n1	-5%	-0.3%	0	-1%
CC1=C(C)CC2C(=O)N(c3cccc4ccccc34)C(=O)C2C1 (configuration not stated)	9%	-1.9%	-1	4%
COc1ccc(-c2nn(-c3ccccc3)cc2CNC[C@H]2O[C@@H](n3cnc(C(N)=O)n3)[C@H](O)[C@@H]2O)cc1	-5%	-1.0%	x	x
COCCN(Cc1ccccc1)C(=S)Nc1ccc(Cl)cc1	-6%	0.0%	-3	5%
Cc1cc(C)n(CCCNC(=O)CN(C)S(=O)(=O)c2ccc(Cl)cc2)n1	-11%	-1.3%	x	x
COCCn1c(SCC(=O)NC2CC2)nc2ccccc21	12%	-9.5%	x	x
Cc1ccc(C)c(NS(=O)(=O)c2cc(C(=O)NCc3ccco3)ccc2C)c1	-9%	-1.2%	7	1%
C/C(=N\NC(=O)CC#N)C1COc2ccccc2O1 (configuration not stated)	-3%	-1.5%	4	-12%
Cc1cccc(OCc2nnc(SCC(=O)O)n2Cc2ccccc2)c1	25%	-0.1%	3	2%
Cc1cc(C)cc(OCc2nnc(N)s2)c1	-8%	-1.0%	-17	-7%
Cc1ccc(C(=O)NCCCn2ccnc2)cn1	-12%	-0.9%	-1	0%
CC(NC(=O)CN(C)S(=O)(=O)c1cccc2nsnc12)c1ccccc1 (configuration not stated)	-15%	0.4%	x	-12%
COc1ccc(S(=O)(=O)N2CCN(CC(=O)Nc3ccc(F)c(F)c3)CC2)cc1	-10%	-2.5%	-9	2%
CCCCCSc1nc(C)c(CC(=O)O)c(=O)[nH]1	13%	2.9%	4	-4%
C1CN(c2nc3nonc3n3nnnc23)CCO1	1%	-5.0%	8	-9%
COc1ccc(CCn2c(=O)[nH]c3cc(C(=O)N4CCN(c5ccccn5)CC4)ccc3c2=O)cc1OC	-1%	-1.5%	-6	2%
Cc1ccccc1NC(=S)NNC(=O)c1csc2c1CCC(C)C2 (configuration not stated)	16%	1.5%	-13	-33%
COCC1CCN(Cc2nc(-c3cccs3)no2)C1 (configuration not stated)	18%	-6.2%	2	5%
Cn1c(=O)c2c(nc(Cl)n2CCOc2ccccc2)n(C)c1=O	-10%	4.5%	x	2%
CCc1ccc(N2C(=O)C3NN=C(C(=O)OCc4ccccc4)C3C2=O)cc1 (configuration not stated)	-11%	3.3%	-3	-1%
Fc1ccc(/C=N/c2c(-c3ccc(F)cc3)nc3n2CCS3)cc1	-18%	-3.2%	-3	-13%

Arranged by value in GLA inh pH 4.5 (descending): seven from the list above
SMILES	Rango release inh	Rango-impB inh	GLA inh pH 4.5	miR-21 reporter
Cc1ccc(C)c(NS(=O)(=O)c2cc(C(=O)NCc3ccco3)ccc2C)c1	-9%	-1.2%	7	1%
Nc1nc(SCC(=O)Nc2cccc(Oc3ccccc3)c2)n[nH]1	-6%	3.4%	5	-12%
O=C(c1ccc(S(=O)(=O)N2CCc3ccccc3C2)cc1)N1CCCCC1	-3%	3.7%	1	3%
O=C(NN=C1C2CC3CC(C2)CC1C3)c1ccccc1O	6%	-0.3%	0	-24%
O=C(Nc1ccc(S(=O)(=O)N2CCCCC2)cc1)c1ccc(CN2CCOCC2)cc1	-21%	0.8%	-5	u
CCC[C@@H](NS(=O)(=O)c1ccc(C)cc1)C(=O)Oc1ccc2c3c(c(=O)oc2c1)CCC3	u	-5.9%	-10	-9%
COc1ccc(NS(=O)(=O)c2cccc(NC(=O)c3ccc(Cl)nc3)c2)cc1	3%	3.9%	-16	u

Later entries:
SMILES	Rango release inh	Rango-impB inh	GLA inh pH 4.5	miR-21 reporter
FC(F)(F)c1ccc(-c2nc(=S)[nH][nH]2)cc1	19%	0.6%	-1	-16%
COc1cc(Cl)c(C)cc1NC(=O)COc1ccccc1[N+](=O)[O-]	-5%	-9.1%	-4	-13%
CCOC(=O)CSc1nnc(NC(=O)NC(C)C)s1	-2%	-2.5%	1	0%
COc1ccc(NC(=O)CC2SC3=NCCN3C2=O)cc1 (configuration not stated)	19%	0.3%	10	-1%
COC(=O)NNC(=O)c1ccc(Cl)cc1Cl	-21%	-0.6%	-13	-8%
COc1ccc(CC(=O)Nc2cccc(C)n2)cc1OC	u	-0.5%	-12	-9%
COc1ccccc1-c1c(C(F)(F)F)oc2cc(OCC(=O)Nc3cc(C)ccc3C)ccc2c1=O	x	x	2	-5%
CCCNc1nc2c(c(=O)n(C)c(=O)n2C)n1CCC(C)C	3%	2.2%	3	14%
COc1ccc(-c2nn(-c3ccccc3)cc2C(=O)Nc2ccc(C(=O)O)cc2)cc1	4%	2.3%	x	-9%
CCOC(=O)c1cnc2ccccc2c1Nc1cccc(C(=O)O)c1	-8%	-0.4%	-6	-32%
CC(=O)N1CCC(O)(c2cccc(C(F)(F)F)c2)CC1	0%	-2.5%	7	-5%
O=C(Nc1ccc(F)cc1F)C1(c2cccs2)CCOCC1	25%	-4.5%	-15	4%
